# From PubChem
# HPGD inh – qHTS Assay for Inhibitors of HPGD (15-Hydroxyprostaglandin Dehydrogenase); 15-hydroxyprostaglandin dehydrogenase [NAD(+)] (Homo sapiens), P15428; purified HPGD, NADH fluorescence kinetic, PGE2 substrate; Potency, µM, for inactives: at the highest dose activity change, negative = inhibition, actives largely listed as inhibitors; 150,000 tested, 4.3% active; active = well fitted inhibition curve with a large enough effect (not every such curve was filed as active); inconclusive = small, poorly fitted or top-dose-only effect, or another doubt; inactive = no such curve, though single readings can be large or run the other way;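 also: top concentration of the series not given in the record; plate controls included wells without enzyme; inactives centre near -10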
# Target sequence (P15428 whole entry, looked up): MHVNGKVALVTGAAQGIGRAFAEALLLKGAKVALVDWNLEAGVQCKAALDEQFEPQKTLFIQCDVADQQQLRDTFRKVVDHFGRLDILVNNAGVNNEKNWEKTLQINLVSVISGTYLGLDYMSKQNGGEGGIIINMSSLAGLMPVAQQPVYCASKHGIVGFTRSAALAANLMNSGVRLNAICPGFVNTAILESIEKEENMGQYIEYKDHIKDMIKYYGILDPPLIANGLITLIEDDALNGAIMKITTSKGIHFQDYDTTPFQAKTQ
#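 NADH formation kinetics: reaction with 30 uM PGE2 and 1 mM NAD+ (final), 20 nM enzyme, Tris-HCl pH 8 with Tween 20, after 15 min compound preincubation at room temperature. Fluorescence change, last versus first of five reads.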
# An asterisk follows results filed as active; ? = inconclusive. % is scaled to controls: 0 for no effect and ±100 for the full control effect; potency is read from the fitted curve at half-maximal effect. Only part of the results is shown; rates above refer to the full screens.
smiles	HPGD inh
NCCC[C@@H](CC(=O)N[C@@H]1CCNC[C@H]1C(=O)N[C@H](CC(=O)N[C@@H](CCC(=O)O)CC(=O)O)Cc1ccccc1)NC(=O)C[C@H](CO)NC(=O)[C@@H]1CCCC[C@H]1N	-10%
Cn1c(SCc2ccccn2)nnc1-c1ccncc1	-10%
COc1ccc(S(=O)(=O)N(C)c2ccc(C(=O)N3CCOCC3)cc2)cc1	6.3µM*
COc1ccccc1OCCSc1nc2ccc([N+](=O)[O-])cc2s1	-27%
COc1ccc(CCn2c(-c3cc([N+](=O)[O-])cc([N+](=O)[O-])c3)nc3nc4ccccc4nc32)cc1OC	-5%
COCCCN(CCCN)Cc1ccco1	-10%
C=CCN(CC(=O)NCc1ccc(OC)cc1)C(=O)c1csnn1	-10%
CC(=O)NC1=C(NC2CCS(=O)(=O)C2)C(=O)c2ccccc2C1=O (centres undefined)	11µM*
CCOc1cc(/C=C2\NC(=S)N(c3c(C)n(C)n(-c4ccccc4)c3=O)C2=O)ccc1O	-6%
CC(C)N(O)C(=O)NC(C)(C)C	-9%
CC1CCN(CCNC(=O)C2CCCN(S(=O)(=O)c3cccc4nonc34)C2)CC1 (centres undefined)	-7%
CN1CCN(C(c2ccc(F)cc2)c2nnnn2Cc2cccs2)CC1 (centres undefined)	-5%
Cc1cc(C)nc(SCc2ccc(C(=O)N/N=C/C3CCCCC3)cc2)n1	-17%
CCOC(=O)/C(C#N)=C/c1cn(CCC(=O)O)nc1-c1ccccc1	-16%
CCn1c(-c2ccccc2Cl)nn(CC(=O)Nc2ccccc2C)c1=S	-2%
Cc1onc(-c2ccccc2Cl)c1C(=O)OCC(=O)N1CCCc2ccccc21	-10%
CC1=NN(c2ccc(C)c(C)c2)C(=O)/C1=C/c1ccc2c(c1)n(C)c(=O)n2C	-19%
COc1ccc(C(=O)NCc2nnc(SCC(=O)Nc3cccc(C(F)(F)F)c3)o2)cc1OC	-10%
O=c1oc(-c2ccccc2NS(=O)(=O)c2ccc3ccccc3c2)nc2ccccc12	0%
O=S1(=O)CCC(NC(=S)NCCNC(=S)NC2CCS(=O)(=O)C2)C1 (centres undefined)	1%

# The list goes on:
smiles	HPGD inh
O=C(Nc1sc2c(c1C(=O)O)CCC2)c1ccccc1	18µM*
CCSc1ccc(C(=O)Nc2cccc(C)n2)cc1[N+](=O)[O-]	-7%
O=C(Nc1cccnc1)c1cc(-c2ccc(Br)cc2)on1	-12%
CCCCCCCCC1OC1CCCCCCCC(=O)O (centres undefined)	-4%
Cc1nc(/C=C/c2ccccc2)[nH]c(=O)c1-c1ccccc1	-22%
Cc1ccc(CNc2nc3ccccc3n3nnnc23)cc1	-8%
Cc1ccc(N(C(=O)CC2NC(=O)NC2=O)C2(C(=O)NC3CCCC3)CCCCC2)cc1 (centres undefined)	-7%
Cc1ccc(-c2nc(N/N=C/c3cccnc3)c3ccccc3n2)cc1	-7%
Cc1ccc2c(c1)C1CCCC3C1N2CC(=O)N3Cc1ccccc1 (centres undefined)	-23%
CCCn1nc(NS(=O)(=O)c2ccccc2)c2cc3cc(C)ccc3nc21	-19%
Cc1nn(C)c(C)c1S(=O)(=O)NC1CCCc2ccccc21 (centres undefined)	-8%
CN(CCc1ccccn1)Cc1ccc(Cl)cc1	-10%
COc1cc2c(cc1OC)C(=O)OC2	-17%
CC1CC(N(C(=O)c2ccc(Cl)cc2)c2ccccc2)c2ccccc2N1C(=O)c1ccco1 (centres undefined)	-6%
Cc1ccc(NC(=O)COC(=O)Cc2csc(-c3ccc(Cl)cc3)n2)cc1C	-2%
CCOC(=O)Cn1c(=O)n(C2CCCC2)c(=O)c2ccccc21	-11%
O=C1NCCCC1C(=O)N/N=C/c1ccccc1O (centres undefined)	?
COc1ccc(CNc2oc(COc3ccccc3)nc2C#N)cc1	-26%
CC1CN/C(=C\C(=O)c2ccccc2)C(=O)N1 (centres undefined)	-16%
Cc1c(O)c(=O)ccn1C	0%

# Next part.
smiles	HPGD inh
Cc1cc(C)c(C#N)c(SCc2ccccc2[N+](=O)[O-])n1	-19%
O=C(Nc1cccc(-c2cn3cccnc3n2)c1)c1ccco1	?
Cc1cc2cc3c(N)[nH]nc3nc2cc1C	-24%
O=C(Nc1cccnc1)c1ccc(CN2CCc3ccccc3C2)cc1	-9%
CCNC(=S)NNC(=O)Cn1nc(C)cc1C	-7%
O=C(Nc1cccnc1Cl)c1cccnc1Cl	-4%
CC(C)Oc1cccc(C(=O)NC(=S)NCc2cccnc2)c1	-13%
Cc1nn(-c2ccccc2)c(C)c1/C=N/NC(=O)CSc1nnc(SCc2cccc3ccccc23)s1	-9%
S=C(Nc1ccc2c(c1)Cc1ccccc1-2)Nc1ccc2c(c1)Cc1ccccc1-2	-6%
CCOC(=O)CC(NC(=O)Cc1ccccc1)c1ccccc1Cl (centres undefined)	-9%
Cc1cccc(NC(=S)N(CCCN2CCOCC2)Cc2cn(C)c3ccccc23)c1	-2%
COc1ccc(-n2nc3ccc(NS(C)(=O)=O)cc3n2)cc1Cl	?
COc1ccc(-n2c(=O)c3c4c(sc3n(CC(=O)NCc3ccco3)c2=O)CCC4)c(OC)c1	-9%
CCOc1ccc2nc(SC3CC(=O)N(c4ccc(C)cc4)C3=O)sc2c1 (centres undefined)	-6%
Cc1ccc(S(=O)(=O)Oc2cccc(N3C(=O)C4CC=CCC4C3=O)c2)cc1 (centres undefined)	-8%
O=C1CSC(=S)N1/N=C/C=C/c1ccccc1	-18%
CCOC(=O)c1c(C)c(C(=O)Nc2cc(OC)ccc2OC)c(C)n1CC	0%
Cc1ccc(NS(=O)(=O)c2ccc(NC(=O)c3cccs3)cc2)cc1	-5%
Cc1cc(C)c2nc(NNC(=O)c3ccc(S(=O)(=O)N4CCCCC4)cc3)sc2c1	-11%
CC1(C)OC2OC(C(=O)N/N=C/c3cc(Br)ccc3O)C3OC(C)(C)OC3C2O1 (centres undefined)	-15%

# The list goes on.
smiles	HPGD inh
COc1ccc(/C=N/NC(=O)CCSc2nc3ccccc3s2)cc1	-8%
COc1ccc(N=Cc2cc3c(cc2O)OC(N)=C(C#N)C3c2ccccc2)cc1 (centres undefined)	-15%
CC(/C=N\NC(=O)CN1CCN(Cc2ccccc2)CC1)=C\c1ccco1	-16%
COc1ccc(OCCn2cc(/C(N)=N/O)c3ccccc32)cc1	-23%
N#CCSc1ccsc1C(=O)Nc1ccc(F)cc1	32µM*
CC1(C)C2CCC1(C)C(OC(=O)CCn1ccnc1)C2 (centres undefined)	2%
CCCN(CCO)Cc1ccc(F)c(Br)c1	0%
Cc1cc(/C=C2/C(=O)NN(c3ccccc3)C2=O)c(C)n1-c1ccc(O)cc1	-28%
Cc1cc(Cl)c(S(=O)(=O)NC(C)C)cc1OCC(N)=O	-1%
O=C1C2=C(c3ccccc31)[N+](=O)C1CCCCC1N2[O-] (centres undefined)	-11%
COc1ccc(NC(=O)Cn2nnc(C(=O)NCCc3ccc(OC)c(OC)c3)c2N)cc1	-3%
COc1ccc(/C=N/NC(=O)c2cc(-c3ccc(C)cc3C)nc3ccccc23)cc1COC(C)=O	?
CCOC(=O)c1c(C)c(C(=O)N2CCCCCC2)c(C)n1CC	13µM*
CNc1ccccc1C(=O)OCC(C)=O	?
Cc1nn(-c2ccccc2)c2c1C(c1ccc(O)c(O)c1)N1C(=N2)C(Nc2ccccc2)=Nc2ccccc21 (centres undefined)	-7%
COc1ccc(/C=N/N2CCOCC2)cc1COc1ccc(Cl)cc1	-8%
Cn1nnnc1SC(C(=O)Nc1cccc(C(F)(F)F)c1)c1ccccc1 (centres undefined)	-9%
CCOc1cc(NC(=S)NCCCN(C)C)c(OCC)cc1NC(=O)c1cccs1	2%
COc1ccc(N2CC(C)Cn3c2nc2c3c(=O)n(CCc3ccccc3)c(=O)n2C)cc1 (centres undefined)	-21%
CC(C)(C)C1=CC(=O)C(N2CCOCC2)=CC1=O	1%

# The listing continues.
smiles	HPGD inh
COC(=O)[C@@H]1C[C@@H]2CC[C@@H](O)C[C@@H]2N1Cc1ccc(N2CCOCC2)cc1	-12%
Cc1nc(C(=O)N(C)C)nn1-c1ccc(Cl)cc1Cl	-9%
CC(=O)O[C@@H]1C(CO[Si](C)(C)C(C)(C)C)=C(Br)C(=O)[C@@H]2O[C@]12C	?
O=C(CCN1C(=O)S/C(=C\c2ccccc2)C1=O)Nc1ccc(S(=O)(=O)Nc2nccs2)cc1	-20%
CCOC(=O)/C(=N/Nc1ccccc1)c1csc(Nc2ccccc2)n1	-6%
NC(=O)C1CCN(c2ncnc3c2c(-c2ccccc2)cn3-c2ccccc2)CC1	-10%
C=CCN(CC=C)S(=O)(=O)c1ccc(NC(=S)NC(=O)/C=C/c2ccccc2)cc1	-11%
Cc1cc(C(C)(C)C)cc(CNC2CCCCC2)c1O	-3%
COc1ccccc1NC(=S)N(Cc1ccco1)Cc1cc2cc(C)cc(C)c2[nH]c1=O	-13%
Cc1ccc(S(=O)(=O)N2CCOCC2)cc1NC(=O)COC(=O)CCC(=O)c1cccs1	-18%
O=C(OC1CCOC1=O)c1cncc(Br)c1 (centres undefined)	-6%
Cc1sc2ncnc(SCC(=O)N3CCCC3=O)c2c1C	25µM*
COC(=O)Cc1cc(=O)[nH]c(/N=C(\N)Nc2ccc(C)cc2)n1	-9%
Cc1cc(C)c(C#N)c(N2CCSCC2)n1	?
COCCN1C(=O)C(=O)/C(=C(/O)c2ccc(S(=O)(=O)N3CCOCC3)cc2)C1c1ccc(C(C)C)cc1 (centres undefined)	-17%
COc1ccc(CCN2C(=O)c3[nH]nc(-c4ccccc4O)c3C2c2cccc(O)c2)cc1OC (centres undefined)	-6%
CNC(=O)C1CC(=O)N(Cc2ccccc2)C(=Nc2ccc(OC)cc2)S1 (centres undefined)	-2%
CC(=O)N1CCc2ccc(S(=O)(=O)N3CCN(C)CC3)cc21	-1%
N#CCSc1nnc(-c2cccnc2)n1-c1ccccc1	-8%
Cc1ccc(C)n1NC(=O)c1ccc(Cl)cc1Cl	-8%

# New compounds follow:
smiles	HPGD inh
C=CCNCCOCCOc1ccc(C)cc1Br	-5%
Cc1ccc(Nc2nc(C(=O)NCCCN3CCOCC3)cs2)cc1	-13%
Cc1occc1C(=O)Nc1ccc2ccccc2c1	-26%
O=C(N/N=C/C=C/c1ccc([N+](=O)[O-])cc1)c1cccs1	16µM*
CCO/C(=C/c1sc2ccc(OC)cc2[n+]1CCCS(=O)(=O)[O-])CC	-22%
CCCOC(=O)c1sc2nc3c(cc2c1N)C(=O)CCC3	-5%
COc1cccc(C(=O)Nc2cccc(OC(C)=O)c2)c1	-19%
O=C(N/N=C\c1ccccn1)C1COc2cc3ccccc3cc2O1 (centres undefined)	14µM*
OCCOCCn1c2ccccc2c2ccccc21	-14%
Cc1[nH]c(=O)[nH]c(=O)c1S(=O)(=O)Nc1ccc(Oc2ccccc2)cc1	-9%
CC(=C/c1ccccc1)/C=N/NC(=O)CSc1nc(C)cc(C)n1	-3%
Cc1nc2cc(C(F)(F)F)ccc2n1C1CCN(CC(=O)N2CCOCC2)CC1	0%
CSc1ccc(/C=N/NC(=O)c2cc(O)cc(O)c2)cc1	-30%
CCCCCCCCNC(=O)/C(C#N)=C/c1ccc2c(c1)OCCO2	?
COC(=O)C1=C(C(=O)OC)[C@@H]2N(C)c3ccccc3[C@@]23C[C@@H](C(=O)OC)N(C(=O)c2ccco2)C3=N1	-4%
Brc1ccc(-c2nnc3ccc(N4CCN(c5ccccc5)CC4)nn23)cc1	?
CCCc1[nH]nc2c1C(c1ccc(OC)c(Cn3nnc4ccccc43)c1)C(C#N)=C(N)O2 (centres undefined)	-12%
O=C(O)C1CCCCN1S(=O)(=O)c1cccc2nsnc12 (centres undefined)	-5%
O=S(=O)(c1cccc(S(=O)(=O)N2CCC(N3CCCCC3)CC2)c1)N1CCOCC1	?
CCN(/N=C/c1ccc(N(C)C)cc1)c1nc2ccccc2[nH]1	?

# (more compounds)
smiles	HPGD inh
CCOc1cc2[nH]c(=S)n(CCCN(CC)CC)c(=O)c2cc1OCC	-18%
O=C(Nc1ccccc1NC(=O)c1ccco1)c1ccco1	3%
COCc1cc(=O)n2[nH]c(-c3ccccc3)cc2n1	?
O=C(NCc1cccs1)C1CCCN1C(=O)NC1CCCCC1 (centres undefined)	2%
C[C@H]1Cc2c(COc3ccccc3)nc3c(c2CO1)CN(C(=O)Nc1cccc(C#N)c1)CC3	0%
Nc1ncnc2nc(SCc3ccc(Cl)cc3Cl)[nH]c12	?
Cc1ccc(-n2c(C)cn(C(=O)c3ccccc3)c2=S)cc1	-11%

# Reformatted with the structure last: part of the list above.
HPGD inh | SMILES
-18% | CCOc1cc2[nH]c(=S)n(CCCN(CC)CC)c(=O)c2cc1OCC
3% | O=C(Nc1ccccc1NC(=O)c1ccco1)c1ccco1
? | COCc1cc(=O)n2[nH]c(-c3ccccc3)cc2n1
2% | O=C(NCc1cccs1)C1CCCN1C(=O)NC1CCCCC1 (centres undefined)
0% | C[C@H]1Cc2c(COc3ccccc3)nc3c(c2CO1)CN(C(=O)Nc1cccc(C#N)c1)CC3
? | Nc1ncnc2nc(SCc3ccc(Cl)cc3Cl)[nH]c12
-11% | Cc1ccc(-n2c(C)cn(C(=O)c3ccccc3)c2=S)cc1
